# Screens (PubChem BioAssay)
# NPYLR7 agonist = agonists of mosquito NPYLR7 receptor, primary screen, cell-based, Aedes aegypti, calcium fluorescence, mosquito biting behavior; activation, % at 10 µM; AID 1259423, 2018; 270,000 compounds, 0.15% hits; Aedes aegypti neuropeptide Y-like receptor 7 (NPYLR7); HEK293T NPYLR7/Galpha15, GCaMP6s calcium fluorescence; in the data active = activation above about 40%;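 also: 0% = vehicle and 100% = reference agonist at the receptor; some compounds past the cut are filed as inactive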
# NPYLR7 agonist max-min = also measured in NPYLR7 agonist; calls as there; activation, %; measured here: Max-Min RFU normalised activation; some inactives read as strong as hits;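 span of the calcium signal over five minutes; 0% = vehicle and 100% = native peptide agonist; compound fluorescence can raise it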
# Starred values were filed as active, the others as inactive; & = joins results of further samples. A portion of the library; count on the stated rates, not on these rows.
molecule | NPYLR7 agonist | NPYLR7 agonist max-min
CC(C)(NC(=O)c1cccs1)C(=O)N1CCC1c1ccc(F)cc1 (configuration not stated) | 26 | 17
O=C(c1ccc(-n2cccn2)cc1)N1CCN(S(=O)(=O)c2cc(F)ccc2F)CC1 | 5 | 11
CCOc1ccc(-n2c(=O)c3ccccc3n(C(CC)C(=O)NCCOC)c2=O)cc1 (configuration not stated) | 6 | 15
N#Cc1c(NC(=O)CN2CCCC2c2cccs2)sc2c1CCC2 (configuration not stated) | 7 | 9
CC(=O)N1CCSC12C(=O)N(C(C)C)c1ccccc12 (configuration not stated) | 0 | 6
COCCN(CCOC)C(=O)c1cc2c(=O)n3ccccc3nc2s1 | 7&6 | 3&1
COc1ccc(C)cc1N1C2=[N+](CCCS2)CC1(O)c1ccc(C)cc1 (configuration not stated) | -2 | -4
O=C(CN1CCCCC1c1cccnc1)NCCc1ccc(Cl)cc1 (configuration not stated) | 6 | 3
CCOC(=O)[C@@H]1[C@H](c2ccccc2)[C@@H](NC2Cc3ccccc3C2)[C@H]2CCCCN21 | 8 | 23
C=CCN=c1scc(-c2ccc(F)cc2)n1N=Cc1ccccn1 | -1 | -11
CN(Cc1ccco1)C(=O)c1ccccc1N1CCC(NC(=O)c2cccs2)CC1 | -5 | 7
COc1ccccc1CNc1nc(-c2ccc3c(c2)OCCCO3)cs1 | 0 | 0
CNS(=O)(=O)Cc1ccccc1CNS(=O)(=O)c1cc(C(F)(F)F)cc(C(F)(F)F)c1 | 9 | 1
CCCc1c(C)nn(-c2ccc(C(=O)NCCOc3ccccc3)cc2)c1C | -4 | -6
Cc1ccc(N(CC(=O)N2CCc3ccccc32)C2=NC(=O)CS2)cc1 | 2 | 0
CO[C@@H]1CC[C@H]2C[C@@H]1[C@@H](Oc1ccccn1)CN2C(=O)c1cccc(C#N)c1 | 15 | 25
Cc1cc2cc(CCNC(=O)c3ccco3)c(=O)[nH]c2cc1C | -1 | 6
CCn1c(SCC(=O)c2ccc(OC)c(F)c2)nnc1C1CC1 | 10 | 1
COc1cc(C(=O)OCC(=O)c2ccc(C)cc2)cc(OC)c1O | 4 | 5
CC(C)NS(=O)(=O)c1ccc(NS(=O)(=O)c2cccc(Cl)c2Cl)cc1 | 7 | 2

# (further entries)
molecule | NPYLR7 agonist | NPYLR7 agonist max-min
CN(CC1OCCO1)C(=O)CCC(=O)N1CCc2ccccc21 | -7 | -13
Cc1nc(NCC2(Cn3cccn3)CC2)c2cnn(C)c2n1 | 5 | 4
N#CC(C(N)=S)=P(c1ccccc1)(c1ccccc1)c1ccccc1 | -6 | -7
CN(C1CCCc2ccccc21)S(=O)(=O)c1ccc(N2CCCC2=O)cc1 (configuration not stated) | 11 | 3
CC1CN(C(=O)CC2CSc3nccc(=O)n32)CC(C)O1 (configuration not stated) | 1 | -1
COc1cccc2c1OCC(CN1CCOC3(CNCCOC3)C1)=C2 (configuration not stated) | 11 | 6
Cc1cc2cc(C(=O)NCC3CN(S(C)(=O)=O)CCO3)ccc2o1 (configuration not stated) | -2 | -2
Cc1nn(CC(=O)Nc2ccc3c(c2)OCO3)c(C)c1[N+](=O)[O-] | -5 | -11
CNc1nc(C(N)=O)c(N)s1 | -3 | -4
CCC1(C)Cc2c(sc3c2c(=O)n(C)c2nnc(SCC(=O)c4ccccc4)n32)CO1 (configuration not stated) | -10 | -13
Cc1cc(-n2cnc3c(C)ncnc32)ccc1NC(=O)c1cccnc1 | 3 | -2
COc1ccc(NC(=O)NCc2ccsc2)cc1 | -4 | -8
CSc1ccc(NC(=O)N2CCC3(CC2)C(=O)N(CC(=O)N2CCOCC2)CN3c2ccccc2)cc1 | 17 | 19
C=CCCOC(=O)N[C@H]1[C@H](OC(=O)NCC)[C@@H]2O[C@H]1c1ccccc12 | 5 | 10
O=C(c1ccc2c(c1)OCO2)N1[C@@H](c2ccco2)[C@@H](CO)C[C@]12CCCCN(CCO)C2=O | 5 | 10
O=C(NCCC1COc2ccccc2O1)c1ccc(-c2ccc[nH]2)nc1 (configuration not stated) | 21 | 11
CN(CC1CCCN1C)C(=O)c1cc(CN2CCc3ccccc3C2)on1 (configuration not stated) | 5 | 2
Cc1cc([N+](=O)[O-])ccc1N1C(=O)/C(=C\c2ccncc2)N(C)C1=S | 20 | 22
CC(NCc1cnc2ccccn12)c1ccccn1 (configuration not stated) | -3 | -5
O=C(O)CCn1c(SCCOc2ccc(Cl)cc2)nc2ccccc21 | -10 | -18

# Remaining list, next part:
molecule | NPYLR7 agonist | NPYLR7 agonist max-min
Cc1ccc(-n2nnc3c(N4CCN(C(=O)Cc5cccc6ccccc56)CC4)ncnc32)cc1 | -4 | -13
O=C(c1ccc(Cl)nc1)N1CCC(c2nc(-c3ccc4c(c3)OCO4)no2)CC1 | 5 | -1
Clc1ccc2nc(-c3cccc(Br)c3)cn2c1 | -2 | -2
CCOc1cccc(C(NC(C)=O)NC(C)=O)c1 | 11 | 10
Cc1c(C(=O)C(=O)Nc2ccc(Cl)cc2)c2ccccc2n1C | 15 | 10
O=C1C2C3C=CC(C3)C2C(=O)N1/N=C\c1ccc(-c2cccc(Cl)c2Cl)o1 (configuration not stated) | -8 | -6
COc1cccc(Cn2ccnc2CN(Cc2ccco2)C(=O)C2CCC2)c1 | -3 | 8
Cc1cccc(C)c1NC(=O)CN1CCN(C(=O)c2ccc(OCC(F)(F)F)nc2)CC1 | 3 | 3
COCCCN(Cc1c(-c2ccccc2)noc1N1CCCC1)C(=O)c1ccco1 | 6 | 9
O=C(CCCn1cncn1)NC1CCCCC1Oc1ccccc1 (configuration not stated) | -1 | -4
C=C(C)Cn1c(SCC(=O)CC(=O)OCC)nc2sc3c(c2c1=O)CCCC3 | 3 | -1
COC(=O)C(OC)(OC)C(c1ccco1)C(C#N)C(=O)O (configuration not stated) | 11 | 17
COc1cc(S(N)(=O)=O)c(OC)cc1Cl | -3 | -6
Oc1oc(-c2ccc(Br)cc2)nc1C=Nc1cccc(F)c1 | 2 | -1
Cc1ccc(NC(=O)Cn2nc(-c3ccco3)c3sc(N4CCOCC4)nc3c2=O)c(C)c1 | 0 | -5
O=C(Nc1nc2ccc(OC(F)(F)F)cc2s1)C1CCOCC1 | 16 | 7
COc1ccc(F)c(CN2CCCC(CO)(Cc3cccc(Cl)c3)C2)c1 (configuration not stated) | -9 | -12
Clc1ccc(N2CCC3(CC2)NCCc2[nH]cnc23)cc1 | 7 | 6
Cc1c(C)n2c3c(=O)n(C)c(=O)n(C)c3nc2n1CC(C)C | 6 | 4
COc1ccc2c(c1)CCCC2CC(=O)C(C#N)C(=O)NC(C)C (configuration not stated) | 5 | 2

# Continuation.
molecule | NPYLR7 agonist | NPYLR7 agonist max-min
CCOP(=O)(Cc1ccc(NC(=O)c2csc(C)n2)cc1)OCC | -7 | -13
O=C(NC1CCCC1)c1ccc(N2CCC(NCC3OCCc4ccccc43)CC2)cc1 (configuration not stated) | 10 | 4
CN(CCCNC(=O)c1ccc(-c2cc(-c3cccc(C(F)(F)F)c3)n[nH]2)cc1)c1ccccc1 | 0 | 6
Cc1cc(=O)[nH]c(-n2nc(C)cc2NC(=O)C2CCN(S(C)(=O)=O)CC2)n1 | 4 | 1
CCCc1onc(C)c1C(=O)N1CCC2(CCOC2)C1 (configuration not stated) | 8 | 4
Cc1oc(C(C)C)cc1C(=O)N1CCc2c(c(C(=O)O)nn2CC2CC2)C1 | 12 | 7
O=C(NCCc1c(-c2cccnc2)[nH]c2ccccc12)c1ccc2nonc2c1 | -4 | 3
Cc1csc(NC(=O)CSc2nc(=O)n(CCCO)c3c2CCCC3)n1 | -9 | -15
c1ccc(-c2csc3[n+]2CCCCC3)cc1 | -2 | -2
NC1CCCCC1N=Cc1c(O)n(CCc2ccc(F)cc2)c(=O)[nH]c1=O (configuration not stated) | 4 | 31
CCCCC(CC)C(=O)N(CCCOC)CC(=O)Nc1cc(C(C)(C)C)nn1-c1ccccc1Cl (configuration not stated) | -1 | 6
COc1cccc(Cn2c(=O)c(C(=O)NCC3CCCO3)nn(-c3ccc(OC)c(OC)c3)c2=O)c1 (configuration not stated) | -5 | 4
COC(=O)c1c(CCl)nc2ccccc2c1-c1ccccc1 | -4 | -7
O=C(CCc1ccccc1)NC1CCN(c2ccccc2C(=O)NCc2ccco2)CC1 | -2 | 6
C=CCn1cc(C(=O)NCCc2cccc(OC)c2)c2nn(-c3ccccc3)c(=O)c-2c1 | 3 | 3
CCN1CCCN(C(=O)/C=C/c2cc(OC)c(OC)c(OC)c2)CC1 | 46 | 33
O=C(NC(Cc1ccccc1)c1ccccc1)c1cc(-c2ccco2)nn1-c1ccccc1Cl (configuration not stated) | -3 | 8
Cc1cccnc1-n1c(SCC(=O)N2CCCC2=O)nc2ccccc2c1=O | -7 | 9
COc1cccc(CCc2ccccc2C(=O)N2CCCC(O)(CO)C2)c1 (configuration not stated) | 4 | 1
Cc1ccc(C(=O)N=Nc2c(O)[nH]c3ccc(C)c(Br)c23)cc1 | -8 | -15

# More records follow.
molecule | NPYLR7 agonist | NPYLR7 agonist max-min
COc1cccc(-c2nnc(NC(=O)c3ccc(F)cc3)s2)c1 | -3 | -8
CCC(C)(C)NC(=O)Cn1nnn(-c2ccccc2)c1=O | -6 | -9
O=C(Nc1ncc(Cc2ccccc2)s1)c1cccs1 | 1 | 35
Cn1cc(S(=O)(=O)N2CCCCC2c2ncc(-c3cccc(F)c3)[nH]2)cn1 (configuration not stated) | 3 | 2
CC1(C)CC(=O)C2=C(C1)OC(=N)C(C#N)C2c1cccc(Br)c1 (configuration not stated) | -16 | -21
O=C(CC1SC(N2CCCCC2)=NC1=O)Nc1ccc(C(=O)NCCCN2CCCC2=O)cc1 (configuration not stated) | -6 | -8
COc1ccc(NC(=O)CN2C(=O)c3ccccc3C2=O)cc1 | -2 | -9
FC(F)(F)c1nc(Oc2ccc3ccncc3c2)c2ccccc2n1 | 5 | 6
CC(=O)c1cccc(CNC2CC(C)(C)Cc3c2cnn3-c2ccccc2C)c1 (configuration not stated) | 2 | -1
Cc1ccccc1C(=O)N1CCC(c2nn3c(C(C)C)nnc3s2)CC1 | 4 | 0
COc1ccc2nc(-c3ccc(C)c(NS(=O)(=O)c4cc(F)ccc4F)c3)cn2n1 | -2 | -7
CCc1ccc(Sc2c(N)c3c(c(N)c2Sc2ccc(CC)cc2)C(=O)c2ccccc2C3=O)cc1 | 5 | 0
CNc1nc2cnc(-c3cccc(O)c3)cc2n1-c1cccc(F)c1 | -13 | -14
COC(=O)c1sc(N)c(C(=O)OC)c1COC(=O)CC1C=CCC1 (configuration not stated) | 0 | 2
CC=CCn1c(SCc2c(F)cccc2Cl)nc2c1c(=O)[nH]c(=O)n2C | 30 | 19
COc1cccc(-n2nc(C(=O)NCc3ccc(F)cc3)c(=O)n(Cc3ccccc3Cl)c2=O)c1 | -7 | 1
Cc1cc(NC(=O)C(C)N2CCCc3ccccc32)on1 (configuration not stated) | 4 | 3
COc1cc(OC)c(C(C)=NN=C(N)N)cc1Cl | 2 | 0
COc1ccc(N2CCN(c3nc(SCc4cccc(C(=O)NCc5ccccn5)c4)nc(C)c3C)CC2)cc1 | 5 | 12
CCc1ccc(CN2CCN(c3ccc(-c4nc(C)no4)cn3)CC2)nc1 | 5 | 5

# Complete entries from above. Order of screens: NPYLR7 agonist	NPYLR7 agonist max-min
# COc1ccccc1CNc1nc(-c2ccc3c(c2)OCCCO3)cs1 across the screens: 0	0
# Cc1cc(NC(=O)C(C)N2CCCc3ccccc32)on1 (configuration not stated) across the screens: 4	3
# O=C(NCCC1COc2ccccc2O1)c1ccc(-c2ccc[nH]2)nc1 (configuration not stated) across the screens: 21	11
# CC(C)NS(=O)(=O)c1ccc(NS(=O)(=O)c2cccc(Cl)c2Cl)cc1 across the screens: 7	2
# CNS(=O)(=O)Cc1ccccc1CNS(=O)(=O)c1cc(C(F)(F)F)cc(C(F)(F)F)c1 across the screens: 9	1

# A second format for 2 compounds above.
# Each structure is followed by: NPYLR7 agonist, NPYLR7 agonist max-min
> COc1ccc(N2CCN(c3nc(SCc4cccc(C(=O)NCc5ccccn5)c4)nc(C)c3C)CC2)cc1
 : 5, 12
> O=C(Nc1ncc(Cc2ccccc2)s1)c1cccs1
 : 1, 35

# Continuation.
molecule | NPYLR7 agonist | NPYLR7 agonist max-min
O=C(CCn1c(=O)sc2ccccc21)Nc1ccc(Nc2ccccc2)cc1 | 2 | 3
Cc1[nH]n(-c2ccc([N+](=O)[O-])cc2)c(=O)c1N=Nc1ccccc1C#N | 8 | -6
CCN1C(=O)NC(c2ccc(Cl)cc2Cl)C2=C1CN(C(C)C(=O)NCCc1c[nH]c3ccccc13)C2=O (configuration not stated) | 0 | 2
C=CCOCC(O)CNC(Cc1ccccc1)c1nc(-c2ccc(Br)cc2)no1 (configuration not stated) | 14 | 21
COC(=O)c1c(N)sc2c1CCNC2 | -7 | -10
CCOc1ccc(S(=O)(=O)NC2CCN(CC(=O)NC)CC2)c(C)c1 | -15 | -17
COCCCNC(=O)CN1CN(c2ccccc2)C2(CCN(C(=O)Nc3ccc(C(C)C)cc3)CC2)C1=O | 2 | 10
COc1ccc(N(Cc2cc(=O)n3ccccc3n2)C2=NC3CS(=O)(=O)CC3S2)cc1 (configuration not stated) | 4 | 4
CCCCCN1CCN(c2nc3c(c(=O)[nH]c(=O)n3C)n2Cc2cccc3ccccc23)CC1 | 9 | 5
O=C1OCc2cc(NC(=O)C3COc4ccccc4O3)ccc21 (configuration not stated) | 4 | 3
CN1C(=S)N(c2ccc3c(c2)CCC3)C(=O)/C1=C\c1ccc(O)cc1O | 2 | 13
O=C(CN1CCN(c2ccc3nnnn3n2)CC1)N1CCCC1 | -3 | -7
COc1ccc(C(=O)NCc2ccc3c(c2)OCCO3)cc1S(=O)(=O)N1CCOCC1 | 1 | 9
C=CC12C=CC=CN1C(C(=O)OC)=C(C(=O)OC)C(C(=O)OC)=C2C(=O)OC (configuration not stated) | 7 | 3
